# D2 ag: Beta-Arrestin HTS for Positive Allosteric Modulators of the Human D2 Dopamine Receptor: Agonists. D(2) dopamine receptor (Homo sapiens), P14416. DiscoveRx PathHunter D2 beta-arrestin, luminescence, 90 min; 100% = 57 uM dopamine signal. activation, % (test concentration not listed). 360,000 tested, 0.084% active. AID 624465, 2012; in the data active = activation above about 40%; inconclusive = about 15% to 40%; inactive = below about 15%; note: compound concentration not given in the record; the text of the record calls up to 30% inactive
# Target sequence (P14416 whole entry, looked up): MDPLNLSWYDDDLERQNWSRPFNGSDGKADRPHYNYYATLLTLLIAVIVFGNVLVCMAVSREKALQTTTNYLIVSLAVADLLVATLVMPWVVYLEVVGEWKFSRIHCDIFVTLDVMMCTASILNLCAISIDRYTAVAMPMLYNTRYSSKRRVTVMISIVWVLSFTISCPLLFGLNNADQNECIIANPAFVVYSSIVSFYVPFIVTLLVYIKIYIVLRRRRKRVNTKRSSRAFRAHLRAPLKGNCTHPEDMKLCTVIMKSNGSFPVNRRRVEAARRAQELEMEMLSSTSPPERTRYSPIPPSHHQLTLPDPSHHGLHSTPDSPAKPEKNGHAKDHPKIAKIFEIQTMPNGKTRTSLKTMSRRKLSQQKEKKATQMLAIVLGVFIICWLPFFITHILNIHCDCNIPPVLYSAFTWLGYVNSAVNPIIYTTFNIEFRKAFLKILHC
#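 Agonist mode: compounds alone added to overnight-plated D2 PathHunter cells for 90 min at 37 C, with 57 uM final dopamine (EC100) defining full response. Beta-arrestin recruitment detected by chemiluminescent reagent, read after 1 h at ambient temperature.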
# PINK1 expr mod: A Quantitative High throughput Screen to Identify Chemical Modulators of PINK1 Expression; PINK1 immunofluorescence, high-content cytometry, 24 h; Potency, µM (highest dose often 76.6 µM), inactives show top-dose activation (PINK1 increase), usual class: activators; 410,000 tested, 0.2% active; active = well fitted activation curve with a large enough effect; inconclusive = small, poorly fitted or top-dose-only effect; inactive = flat fitted curve, though single readings scatter; cell line not stated here;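 note: potency is the fitted concentration of half-maximal effect; % of control where 0% means no effect; nearly all actives have a fitted effect of over 65% in size; a mitochondrial uncoupler was the plate control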
#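 Decision-based qHTS: stable cells, 24 h exposure to five compound concentrations, CCCP as control. Fixed cells stained for PINK1 plus nuclear, mitochondrial and cell markers, cytometer read.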
# CtBP-E1A blk: qHTS Assay for Inhibitors of the CtBP/E1A Interaction. CtBP / adenovirus E1A interaction (AlphaScreen). AlphaScreen GST-E1A/His-CtBP binding, 1536-well; active compounds read low; control for the full effect not named in the record. activity change, % (no concentration beside the values). 340,000 tested, 0.49% active. AID 651724, 2012; in the data active means activity change below about -65%; inconclusive means about -30% to -65%; inactive means above about -30%; note: % is set by controls: 0 for no effect and ±100 for the full control effect
#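 In 5 uL wells, 23 nL compound meets equimolar GST-E1A and His-CtBP (5X stock 125 nM each) for 2 h, 37 °C. Beads (5X, 50 ug/mL) then 1 h, 37 °C, dark.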
# TRPML1 agonist: qHTS for Agonists of the Human Mucolipin Transient Receptor Potential 1 (TRPML1); Mucolipin-1 (Homo sapiens), Q9GZU1; TRPML1-expressing cells, Ca2+ dye fluorescence, FDSS; host cell line not named in the record; reference of the full effect not given here; activation, % (no concentration beside the values); 410,000 tested, 0.12% active; in the data active = activation above about 50%; inconclusive = about 30% to 50%; inactive = below about 30%; note: 0% is about no effect; the text of the record puts the active cut at 80%
# Target sequence (Q9GZU1 whole entry, looked up): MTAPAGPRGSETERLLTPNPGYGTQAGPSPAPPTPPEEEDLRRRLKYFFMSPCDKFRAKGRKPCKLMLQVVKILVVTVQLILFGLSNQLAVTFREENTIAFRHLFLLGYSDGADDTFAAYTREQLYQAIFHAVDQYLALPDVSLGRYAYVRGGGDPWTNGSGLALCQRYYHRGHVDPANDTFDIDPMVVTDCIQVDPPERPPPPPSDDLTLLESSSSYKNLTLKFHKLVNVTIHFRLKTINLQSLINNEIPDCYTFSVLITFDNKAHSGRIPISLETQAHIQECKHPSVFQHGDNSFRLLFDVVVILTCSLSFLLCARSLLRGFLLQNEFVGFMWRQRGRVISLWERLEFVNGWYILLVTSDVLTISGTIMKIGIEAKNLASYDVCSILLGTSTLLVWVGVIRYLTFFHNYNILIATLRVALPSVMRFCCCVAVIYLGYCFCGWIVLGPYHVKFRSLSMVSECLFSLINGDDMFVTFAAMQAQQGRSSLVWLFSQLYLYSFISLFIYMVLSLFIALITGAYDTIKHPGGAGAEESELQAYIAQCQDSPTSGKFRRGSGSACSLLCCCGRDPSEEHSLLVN
#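 Kinetic FDSS Ca2+ read in Tet-induced TRPML1-DL cells (ABD Ca8 dye plus quencher, 45-90 min RT loading): baseline, then compound, then 110 s agonist window; EC80 agonist 54-4 at 4uM final added afterwards for a 110 s antagonist window.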
# Six1-Eya2 inh: qHTS Assay for Inhibitors of the Six1/Eya2 Interaction. Homeobox protein SIX1 (Homo sapiens) + Protein phosphatase EYA2 (Homo sapiens), …. AlphaScreen GST-Six1/His-Eya2 binding, biochemical; active compounds read low; control for the full effect not named in the record. activity change, % (no concentration beside the values). 360,000 tested, 0.56% active. AID 651725, 2012; in the data active = activity change below about -65%; inconclusive = about -30% to -65%; inactive = above about -30%; note: % is set by controls: 0 for no effect and ±100 for the full control effect
#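 Homogeneous AlphaScreen proximity assay pairing GST-Six1 with His-tagged Eya2 (added as 5X mix: 250 nM and 500 nM) in 50 mM Tris pH 8.0, 300 mM NaCl, 1 mM TCEP. Glutathione donor and nickel acceptor beads; 1 h, 37 °C, dark.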
# TRPML1 blocker: qHTS for Inhibitors of the Human Mucolipin Transient Receptor Potential 1 (TRPML1). TRPML1-inducible cells, Ca2+ dye fluorescence, FDSS; active compounds read low; inhibition of EC80 agonist-evoked calcium signal. activity change, negative = inhibition, % (concentration not given with the values). 390,000 tested, 0.02% active; in the data active means activity change below about -50%; inconclusive means about -30% to -50%; inactive means above about -30%;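 note: stimulus is agonist 54-4 at its EC80 concentration; % is set by controls: 0 for no effect and ±100 for the full control effect; the text of the record puts the active cut at -80%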
#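 Tet-induced TRPML1-DL cells loaded with Ca8 no-wash calcium dye were read kinetically on FDSS. Compound addition was followed by EC80 agonist 54-4 (4 uM final); inhibition was read over 110 s.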
# Active calls of the source: *; u = inconclusive; x = no result given; [ ] = remark or other dose.
SMILES,D2 ag,PINK1 expr mod,CtBP-E1A blk,TRPML1 agonist,Six1-Eya2 inh,TRPML1 blocker
N#Cc1cnn2ccc(-c3cc(N4CCOCC4)ccc3[N+](=O)[O-])nc12,-0.4,1.6%,0.0,-0.7,-18.8,-8.1
Cc1ccc(C(=O)Nc2ccccc2C(=O)O)cc1NC(=O)COc1c(C)cccc1C,4.8,4.0%,x,2.0,-0.2,9.9
COc1ccc(S(=O)(=O)N2CCOCC2)cc1NC(=O)CN1C(=O)NC2(CCCCC2C)C1=O (stereo not given),-6.1,1.6%,5.9,1.0,0.2,0.9
N#Cc1c(-c2ccccc2)nc(SCc2ccc([N+](=O)[O-])cc2)[nH]c1=O,-2.8,-0.2%,-0.2,-0.6,-10.1,-5.7
CCC(c1nnnn1-c1c(C)cccc1C)N1CCN(CC)CC1 (stereo not given),x,-0.5%,-4.0,0.1,2.5,x
Cc1ccc(S(=O)(=O)NCc2ccc(C(=O)N3CCc4ccccc4C3)cc2)cc1,-0.1,-2.1%,1.2,-0.7,0.5,-8.1
CCCCCN(C(=O)CCC(=O)OCC(=O)NCc1ccc(OC)cc1)c1c(N)n(CCCC)c(=O)[nH]c1=O,1.5,-1.4%,-4.0,0.1,3.4,5.1
CCC(=O)Nc1nnc(SCC(=O)Nc2cccc(Cl)c2)s1,-4.5,1.0%,-0.2,-0.6,3.4,5.0
CCN1CCN(c2nc3ccccc3nc2C(C#N)C(=O)OCc2ccccc2)CC1 (stereo not given),-1.4,2.0%[38.3 µM],u,0.0,-19.5,-6.9
Cc1nc(NCc2ccco2)c2oc3ccccc3c2n1,4.5,5.6%,-9.7,0.0,-12.4,14.9
O=C(O)c1ccc(/C=N/Nc2ncc(Cl)cc2Cl)cc1,-6.8,-0.2%,6.0,0.3,6.2,15.7
Cc1ccc(NC(=O)C2CCCN(S(=O)(=O)c3ccc4c(c3)CCCC(=O)N4)C2)cc1N(C)C (stereo not given),x,-0.5%,x,3.9,x,-3.4

# Brought forward from above: 6 compounds, then new ones.
SMILES,D2 ag,PINK1 expr mod,CtBP-E1A blk,TRPML1 agonist,Six1-Eya2 inh,TRPML1 blocker
CCCCCN(C(=O)CCC(=O)OCC(=O)NCc1ccc(OC)cc1)c1c(N)n(CCCC)c(=O)[nH]c1=O,1.5,-1.4%,-4.0,0.1,3.4,5.1
CCC(=O)Nc1nnc(SCC(=O)Nc2cccc(Cl)c2)s1,-4.5,1.0%,-0.2,-0.6,3.4,5.0
CCN1CCN(c2nc3ccccc3nc2C(C#N)C(=O)OCc2ccccc2)CC1 (stereo not given),-1.4,2.0%[38.3 µM],u,0.0,-19.5,-6.9
Cc1nc(NCc2ccco2)c2oc3ccccc3c2n1,4.5,5.6%,-9.7,0.0,-12.4,14.9
O=C(O)c1ccc(/C=N/Nc2ncc(Cl)cc2Cl)cc1,-6.8,-0.2%,6.0,0.3,6.2,15.7
Cc1ccc(NC(=O)C2CCCN(S(=O)(=O)c3ccc4c(c3)CCCC(=O)N4)C2)cc1N(C)C (stereo not given),x,-0.5%,x,3.9,x,-3.4
COc1ccc(OC)c(NC(=S)NCc2ccco2)c1,0.1,-0.3%,-1.7,-0.5,-10.1,10.6
COc1ccc(CCNc2oc(/C=C/c3cc(OC)c(OC)c(OC)c3)nc2C#N)cc1OC,x,2.3%,x,1.7,x,-17.9
O=C(Nc1ccc(Nc2ccccc2)cc1)c1ccc(Cl)cc1Cl,-2.4,-0.2%,-8.3,0.6,-22.7,10.1
NC(=O)[C@H]1CC2(CC(c3cccc(NC(=O)COc4ccc(Cl)cc4)c3)=NO2)CN1C(=O)Cc1ccc([N+](=O)[O-])cc1 (stereo not given in full),9.7,-1.5%,-4.4,1.6,1.0,-17.0
O=C(CSc1ccccc1)N1CCN(S(=O)(=O)c2ccccc2F)CC1,0.5,-1.7%,-15.7,1.1,-0.6,3.7
O=C(CS(=O)(=O)c1ccc(Cl)cc1)Nc1nnc(-c2cccs2)o1,1.1,-0.7%,-7.2,-0.1,-6.7,-16.1
Cc1cc(C(=O)Nc2ccccc2C(=O)O)oc1C,-3.9,3.6%,x,x,-6.5,x
CC(C(=O)N1CCN(c2ccc([N+](=O)[O-])cc2)CC1)N1C(=O)C2CC=CCC2C1=O (stereo not given),-1.6,-0.6%,5.1,0.0,2.0,16.6
O=C(/C=C/c1ccco1)N(Cc1cccc(F)c1)C1CCS(=O)(=O)C1 (stereo not given),5.5,0.1%,0.3,-1.2,-3.2,6.2
CNc1ccc(-c2ccccc2CO)cn1,-2.4,0.6%,0.9,-0.1,4.1,x
O=C(O)c1cccc(S(=O)(=O)Nc2ccc3c(c2)OCO3)c1,-3.8,4.5%,8.6,-0.1,1.4,8.0
Cc1cc(C)n(-c2nc3ccccc3c(=O)n2OCc2ccc(F)cc2)n1,1.0,0.0%,9.5,1.4,8.8,-0.1
O=C(Cc1c[nH]c2ccccc12)N/N=C/c1cccc(F)c1,-3.5,1.3%,-4.0,0.6,-6.2,-10.0
COCCN1C=C2C(=O)C(C)(OC(=O)CCC(=O)OC)C(=O)C(Br)=C2C=C1c1ccc(OC)cc1 (stereo not given),6.8,-1.3%,-11.3,0.3,-7.2,19.7
COc1nc(Oc2ccc(C(=O)O)cc2)nc(Oc2ccc(C(=O)O)cc2)n1,-0.6,u,9.7,-0.2,0.4,-3.9
CCOC1OC(=O)C(Cl)=C1Nc1cc(C)ccc1C (stereo not given),-3.3,0.0%,0.1,-1.1,4.0,-10.3
N#CCCN(C(=O)COC(=O)CCc1ccccc1)c1ccccc1,-2.7,4.2%,-1.2,0.8,-4.1,6.7
COc1cccc(NC(=S)N2CCn3cccc3C2c2cccnc2)c1 (stereo not given),2.6,0.5%,0.0,-0.7,-15.6,38.6
COC(=O)c1ccccc1NC(=S)NC(=O)c1ccc2ccccc2c1,-6.5,2.0%,-21.3,0.1,-21.1,-14.7
O=C(CSc1nc2ccccc2nc1N1CCOCC1)Nc1ccccc1F,-1.5,2.2%,1.4,1.6,9.4,30.6
NNC(=O)/C=C/c1ccc(Cl)cc1Cl,-0.5,1.8%,-3.0,0.3,1.4,0.9
COc1ccc(C2Nc3ccccc3C(=O)N2c2ccccc2)cc1CSc1ccccn1 (stereo not given),-2.5,12.0%,0.0,1.1,4.2,-2.3
CC(Sc1nnc(N)s1)C(=O)NC1CCCCC1C (stereo not given),-2.0,0.1%,-5.4,0.3,14.0,-2.5
CCCC(NC(=O)CNC(=O)C(C)(C)C)C(=O)O (stereo not given),-1.7,8.5%,6.8,0.2,5.4,5.4
COc1cccc(NC(=O)CN(C)C(=O)c2ccc(NS(=O)(=O)c3ccc(F)cc3)cc2)c1,-5.2,0.1%,-1.2,0.2,-0.1,-6.1
Cc1ccc(S(=O)(=O)NCC(=O)OCC(=O)NCCc2ccccc2)cc1,-0.7,2.5%,3.1,0.4,0.2,10.5
CC(C)CCN(C(=O)CNC(=O)c1cccs1)C(C(=O)NC1CCCC1)c1ccncc1 (stereo not given),-2.6,1.0%,x,0.4,6.5,15.7
COc1ccc([C@H]2CC(=O)C=C(c3ccc(Cl)c(Cl)c3)C2)cc1,-6.9,0.0%,-0.5,0.0,2.2,24.0
CC(C)(C)c1cc(NC(=O)C2CCCO2)no1 (stereo not given),0.9,21.2%[38.3 µM],5.4,1.3,-0.4,0.6
COCc1cc(C)nc(SCC(=O)Nc2cc3c(cc2C#N)OCO3)c1C#N,1.0,-1.1%,3.3,-0.1,7.4,-2.0
CCn1ncc(Cl)c1C(=O)Nc1ccncc1,-1.9,4.4%[38.3 µM],0.6,0.1,4.9,1.3
Cc1cc(NC(=O)CCSc2ccccc2)ccc1Br,-4.5,12.9%,23.6,2.1,18.8,-29.1
CCOC(=O)CSc1cc(CS(=O)(=O)c2ccccc2)nc(-c2ccccc2)n1,-3.8,7.2%,-0.5,1.0,0.3,54.7
O=C(CCC(=O)N(CC(=O)NC1CCCCC1)Cc1cccs1)Nc1nccs1,-1.3,2.0%,7.5,0.6,7.7,-3.7
N#CCCN(Cc1cccnc1)CN1C(=O)c2ccccc2C1=O,-11.7,-0.6%,-1.1,0.0,20.5,3.4
OCCCn1c(CCCNc2nc(-c3cccc(Br)c3)cs2)nc2cc(Cl)c(N3CCCCC3)cc21,-5.0,4.4%,-7.2,-0.3,-13.7,23.9
Cc1ccc(CNC(=O)[C@H](C)NC(=O)C2CCN(C(=O)[C@@H](N)CC(C)C)CC2)cc1,-7.6,1.4%,-19.3,x,-3.9,x
CCOc1c(CNCCN2CCOCC2)cccc1OC,-1.2,-2.8%[38.3 µM],5.1,1.1,6.7,2.5
CCCN(CCC)CCCNC(=O)c1cc2c(=O)oc3ccc(C)cc3c2s1,x,0.0%,x,-0.8,x,39.7
O=[N+]([O-])c1ccc2[nH]c3c(c2c1)CCCC3O (stereo not given),-0.6,1.3%,-22.8,0.9,-4.1,36.9
O=c1[nH]nc(-c2ccccc2)c2ccccc12,1.6,-1.9%,-1.2,-1.0,-1.1,2.5
Cc1nc2ccn(Cc3cccs3)c(=O)c2cc1C(=O)Nc1ccccc1,x,2.0%,x,0.9,x,-24.1
CCOC(=O)Cc1csc(NC(NC(=O)OCC)(C(F)(F)F)C(F)(F)F)n1,-1.3,-0.1%,-0.4,-0.5,-1.0,-1.3
COc1cccc(NC(=O)CN(C)C(=O)CSc2ccc3c(c2)OCCO3)c1,-1.2,0.2%,-16.9,1.8,-4.0,5.6
O=C(Nc1ccc(Br)cc1F)c1ccncc1,1.7,-0.9%,3.1,-1.9,-1.2,-0.8
O=C(NCc1ccc(C(F)(F)F)cc1)C1CC(c2cccc(F)c2)=NO1 (stereo not given),-3.4,-0.2%,8.2,-0.8,2.3,4.1
Cc1ccc(CNS(=O)(=O)c2ccc(CN3C(=O)c4cccnc4C3=O)s2)o1,6.3,1.2%,-11.0,0.9,-2.4,6.6
COc1cc(S(=O)(=O)N2CCOCC2)ccc1NC(=O)COC(=O)c1ccccn1,-1.6,1.8%,-7.6,0.2,-9.4,10.5
S=c1[nH]nc(-c2ccccc2)n1/N=C/c1cccc(Cl)c1,-6.1,2.5%,-4.8,2.4,-14.6,24.6
CC(=O)c1cccc(NC(=O)c2cccc(S(=O)(=O)N3CCOCC3)c2)c1,1.8,0.3%,-11.1,0.0,4.4,-21.9
CC(C)OC(=O)c1nn2c(C(F)(F)F)cc(-c3ccco3)nc2c1Cl,-2.8,u,-1.2,-0.3,-4.5,-1.8
CN(C)CCN1C(=O)c2oc3ccccc3c(=O)c2C1c1cccc(Br)c1 (stereo not given),0.0,-1.4%[38.3 µM],4.9,0.9,-1.5,11.0

# Screening results as filed in PubChem BioAssay.
